# Screening results from PubChem.
# PINK1 modulator: A Quantitative High throughput Screen to Identify Chemical Modulators of PINK1 Expression; PINK1 immunofluorescence, high-content cytometry, 24 h; Potency, µM (top dose mostly 76.6 µM), inactives show top-dose activation (PINK1 increase), usual class: activators; actives 0.2% (n = 410,000); active = well fitted activation curve with a large enough effect; inconclusive = small, poorly fitted or top-dose-only effect; inactive = flat fitted curve, though single readings scatter; cell line not stated here;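 note: potency is the fitted concentration of half-maximal effect; % of control where 0% means no effect; nearly all actives have a fitted effect of over 65% in size; a mitochondrial uncoupler was the plate control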
#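 A stable cell line was treated with compounds at 5 concentrations for 24 hours, with CCCP as control. PINK1 levels and mitochondrial localization were measured by immunofluorescence with mitochondrial, cell and nuclear markers after fixation, read by laser-scanning cytometry.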
# Menin MLL FP FL: qHTS Assay for Inhibitors Targeting the Menin-MLL Interaction in MLL Related Leukemias: Competition With Fluorescein Labeled MLL-derived Peptide | Fluorescence polarization, fluorescein-MLL peptide displacement from menin | FP activity change, % at 61.4 µM | 290,000 tested, under 10 active; inconclusive = falling polarisation curve, or a change in total fluorescence; inactive = total fluorescence flat and polarisation flat or rising; no compound was filed as active; the % refers to the polarisation; negative = inhibition;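 note: % of control where 0% means no effect; inhibitors lower the polarisation; unlabelled MLL peptide was the positive control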
# ClpP mod: qHTS Assay for Activators of ClpP | actives 1.9% (n = 340,000) | ATP-dependent Clp protease proteolytic subunit (Bacillus subtilis (strain 168)), P80244 | Potency, µM (doses to about 57.5 µM), for the others: at the highest dose activity change, negative = active | AID 651965, 2013 | purified B. subtilis ClpP, FRET peptide cleavage, 20 min; active = well fitted falling curve with a large enough effect; inconclusive = small, poorly fitted or top-dose-only effect; inactive = no such curve, though single readings can be large or run the other way; note: potency is the fitted concentration of half-maximal effect; the source files actives as falling curves though it sought activators and does not explain the sign; nearly all actives have a fitted effect of over 65% in size; many hits overshoot -100%
# Target sequence (P80244 whole entry, looked up): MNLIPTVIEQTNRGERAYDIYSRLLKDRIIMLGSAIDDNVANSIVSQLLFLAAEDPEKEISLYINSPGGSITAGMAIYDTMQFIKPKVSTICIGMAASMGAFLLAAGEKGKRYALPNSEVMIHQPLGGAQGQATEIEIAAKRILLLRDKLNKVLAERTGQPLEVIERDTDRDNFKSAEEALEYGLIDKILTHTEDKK
#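 Purified B. subtilis ClpP, 10 microg/mL final in Tris/HCl pH8 with KCl, BSA, glycerol and Tween-20, cleaved an Abz/nitrotyrosine-quenched decapeptide. Fluorescence (ex 320, em 430) was read at 0 and 20 min at room temperature. Delta was normalized to 5.8 microM ADEP and DMSO/no-enzyme controls.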
# TRPV1 PAM: HTS Assay for Compounds that Act as Potentiators of the Vanilloid Receptor 1. Transient receptor potential cation channel subfamily V member 1 (Homo sapiens), Q8NER1. TRPV1-expressing cells, Fluo-8 calcium influx, capsaicin EC20 potentiation; host cell line not named in the record; control for the full effect not named in the record. potentiation, % at 8.33 µM. actives 0.02% (n = 320,000). AID 540277, 2011; active means potentiation above 80%; inconclusive means 30% to 80%; inactive means below 30%; note: 0% is about no effect
# Target sequence (Q8NER1 whole entry, looked up): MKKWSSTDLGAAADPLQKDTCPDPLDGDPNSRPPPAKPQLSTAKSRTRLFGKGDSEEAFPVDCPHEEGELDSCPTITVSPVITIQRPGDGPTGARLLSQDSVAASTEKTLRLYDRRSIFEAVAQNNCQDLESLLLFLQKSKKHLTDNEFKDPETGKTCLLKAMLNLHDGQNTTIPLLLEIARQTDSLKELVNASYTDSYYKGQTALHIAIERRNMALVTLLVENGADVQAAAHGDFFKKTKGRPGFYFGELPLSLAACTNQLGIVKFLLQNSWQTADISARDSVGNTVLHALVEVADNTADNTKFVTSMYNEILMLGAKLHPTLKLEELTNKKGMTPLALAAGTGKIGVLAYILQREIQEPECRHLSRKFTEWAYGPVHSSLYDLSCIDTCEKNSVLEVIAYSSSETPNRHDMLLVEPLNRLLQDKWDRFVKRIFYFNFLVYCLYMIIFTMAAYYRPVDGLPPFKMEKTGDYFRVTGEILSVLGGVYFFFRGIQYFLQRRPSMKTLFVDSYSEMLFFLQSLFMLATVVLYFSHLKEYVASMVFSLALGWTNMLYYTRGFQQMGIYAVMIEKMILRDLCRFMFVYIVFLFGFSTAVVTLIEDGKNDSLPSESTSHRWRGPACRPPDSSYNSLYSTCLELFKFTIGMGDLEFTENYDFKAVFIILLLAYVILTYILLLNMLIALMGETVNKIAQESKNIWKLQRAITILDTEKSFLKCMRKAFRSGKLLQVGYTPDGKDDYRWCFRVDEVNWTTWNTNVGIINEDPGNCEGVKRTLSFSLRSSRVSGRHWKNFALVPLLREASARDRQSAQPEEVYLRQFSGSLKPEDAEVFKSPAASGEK
#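 TRPV1-expressing cells were cultured overnight at 35.5C and loaded with Fluo-8 calcium dye for 40 to 90 min at room temperature. After a 10 s baseline, compound was added and calcium influx was read kinetically for 3 min (ex 480/em 520 nm).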
# TRPML1 ag: qHTS for Agonists of the Human Mucolipin Transient Receptor Potential 1 (TRPML1). TRPML1-expressing cells, Ca2+ dye fluorescence, FDSS; host cell line not named in the record; reference of the full effect not given here. Mucolipin-1 (Homo sapiens), Q9GZU1. activation, % (concentration not given with the values). actives 0.12% (n = 410,000); in the data active = activation above about 50%; inconclusive = about 30% to 50%; inactive = below about 30%; note: 0% is about no effect; the text of the record puts the active cut at 80%
#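 Cells: TRPML1-DL, 1X Tet inducer, ~16 h at 37 degrees C/5% CO2. Dye: ABD Ca8 no-wash + quencher, 45-90 min RT. Read: 10 s baseline, compound add, 110 s agonist phase; 54-4 EC80 (4uM final), 110 s antagonist phase.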
# Sfp PPTase inh: qHTS Assay for Inhibitors of Bacillus subtilis Sfp phosphopantetheinyl transferase (PPTase); 4'-phosphopantetheinyl transferase ffp (Bacillus subtilis), Q9F4F7; AID 1490, 2009; Biochemical Sfp PPTase activity, qHTS; actives 3.5% (n = 310,000); Potency, µM, inactives show max response, negative = inhibition, most hits filed as inhibitors; active = well fitted inhibition curve with a large enough effect; inconclusive = small, poorly fitted or top-dose-only effect, or another doubt; inactive = no such curve, though single readings can be large or run the other way;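 note: the enzyme is Sfp with the accession as filed and its product quenches rhodamine fluorescence; potency is the fitted concentration of half-maximal effect; 0% = enzyme reaction without inhibitor and -100% = no enzyme wells; top concentration of the series not given in the record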
#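 Fluorescence-quenching assay with 15 nM Sfp, 5 uM rhodamine-CoA and 12.5 uM BHQ-2-labelled ybbR peptide in pH 7.6 Hepes/MgCl2 buffer. Enzyme was pre-incubated with compound for 15 min at room temperature. Rate was taken from the 30-min fluorescence change (525/598 nm).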
# TRPML1 blocker: qHTS for Inhibitors of the Human Mucolipin Transient Receptor Potential 1 (TRPML1); Mucolipin-1 (Homo sapiens), Q9GZU1; TRPML1-inducible cells, Ca2+ dye fluorescence, FDSS; active compounds read low; inhibition of EC80 agonist-evoked calcium signal; activity change, negative = inhibition, % (concentration not given with the values); actives 0.02% (n = 390,000); AID 624415, 2012; in the data active means activity change below about -50%; inconclusive means about -30% to -50%; inactive means above about -30%;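 note: stimulus is agonist 54-4 at its EC80 concentration; % is set by controls: 0 for no effect and ±100 for the full control effect; the text of the record puts the active cut at -80%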
#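 TRPML1-DL cells, Tet-induced overnight (~16 h, 37 °C) at 1,500 cells/well, were loaded with Ca8 no-wash dye plus quencher for 45-90 min at room temperature. Compounds were pinned during FDSS kinetic reading; agonist 54-4 at EC80 (4 uM final) then added.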
# The depositor's hits bear a star; ? = inconclusive; . = not tested or not shown; & = joins results of further samples; [ ] = remark or other dose.
molecule	PINK1 modulator	Menin MLL FP FL	ClpP mod	TRPV1 PAM	TRPML1 ag	Sfp PPTase inh	TRPML1 blocker
CCCc1cc(=O)[nH]c2nnc(SCC)n12	2.9%	.	-5.1%	.	0.4	.	3
Cc1cc(C(=O)COc2ccc3ccc(=O)oc3c2)c(C)n1Cc1cccs1	7.2%	1.2	0.3%	?	0.4	-3%	-3
CCc1ccc(NC(=O)Cn2c(=O)n(CCCC(=O)NCc3ccccc3Cl)c(=O)c3ccccc32)cc1	1.3%	.	-1.3%	.	-0.9	.	-11
Cc1ccc(NC(=O)C2C3CCC(O3)C2C(=O)O)cc1C (centres undefined)	?	0.9	-0.1%	10	.	-10%	.
O=[N+]([O-])c1cc(/C=N\Nc2nc(-c3ccccc3)cs2)ccc1O	6.5%	0.6	.	7	-0.8	50µM*	-4
CC(=O)c1cccc(NC(=O)CN2C(=O)CN(C)C(=O)c3ccccc32)c1	3.8%	.	-0.2%	.	3.9	.	2
CC#CC(=O)N1CCC(Oc2cccc(C(=O)NCc3ccccn3)c2)CC1	-0.7%	.	1.8%	4	0.8	19%	-20
CCN(CC)C(=O)CN1C(=O)COCC1=O	-5.0%[38.3 µM]	3.2	0.8%	-4	-0.5	10%	6
CC(OC(=O)c1ncc(Cl)c(Cl)c1Cl)C(=O)NC1CCCCC1C (centres undefined)	-1.3%	.	-34%	-3	0.0	.	19
C[C@H](NC(=O)c1nc[nH]c1C(=O)N[C@@H](Cc1ccccc1)C(=O)OC(C)(C)C)C(=O)OC(C)(C)C	3.8%	1.4	3.1%	-25	0.7	21%	-9
CCN(CC)S(=O)(=O)c1ccc(NC(=O)CSc2ncnc3ccccc23)cc1	-1.3%	5.7	0.2%	4	0.3	-2%	-3
O=C(CN(C(=O)CSc1nnc(COc2ccccc2)o1)c1ccc(F)cc1)NC1CCCCC1	.	4.6	-15%	3	1.3	4%	7
COc1ccc(C2=NOC(C(=O)NCc3cccnc3)C2)cc1OC (centres undefined)	8.3%	-5.6	.	3	0.1	9%	-11
COC(=O)CN1C(=O)CSc2ccc(S(=O)(=O)Nc3ccc(C(C)=O)cc3)cc21	1.1%	.	-20%	.	-0.7	.	-11
Cn1ncc(C(=O)Nc2ccc(Cl)cc2)c1C(F)(F)F	-0.1%	0.6	.	-15	0.9	-3%	-6
C=C(C)C(=O)OCC(=O)NCc1ccccc1	-0.9%	-0.1	.	2	2.6	14%	14
Cc1ccccc1-c1cnc(C(O)c2ccc(F)cc2C)[nH]1 (centres undefined)	0.0%	.	-0.5%	.	-0.7	.	.
CCOC(=O)c1noc2ncn(CC(=O)O)c(=O)c12	-0.7%	.	16%	.	-0.2	.	4
CCC1Oc2ccc(C)cc2N(CC(=O)N2CCN(c3ccccc3OC)CC2)C1=O (centres undefined)	0.5%	.	2.9%	.	-0.6	.	-16
COc1ccccc1CCNC(=O)CSc1ccc(-c2cccs2)nn1	-1.3%	-2.2	.	-11	0.1	4%	2
COC(=O)CN1C(=O)C(C)(C)c2cc(S(=O)(=O)Nc3ccc(Br)cc3F)ccc21	0.9%	.	-3.3%	.	2.0	.	-6
CC1CCN(c2cc(C#N)c(C#N)cc2[N+](=O)[O-])CC1	0.8%	2.9	0.2%	26	-0.4	1%	15
Cc1ccc(C)c(N2CCN(S(=O)(=O)c3csc(C(N)=O)c3)CC2)c1	-0.2%&5.4%	-0.2	-1.0%&0.0%	-1	0.8&1.0	-4%	1&-15
Cc1cc(Br)ccc1NC(=O)c1sc2ncnc(N3CCN(c4ccccn4)CC3)c2c1C	0.3%	6.6	-14%	5	-0.4	-1%	-6
CNC(=O)OCc1cocc1COC(=O)NC	-0.3%	.	-2.3%	.	-0.3	.	.
CC(C)C[C@@H]1O[C@H](CCc2ccccc2)Cc2[nH]c(=S)[nH]c(=O)c21	9.1%	.	-1.6%	.	-1.3	.	.
O=C(CCC(F)(F)F)N1CCC(CO)(CCc2ccccc2)CC1	1.1%	4.0	1.3%	-18	.	13%	.
Cc1nn(-c2cc(C)c3ccccc3n2)c2c1CCC2	-2.7%	-4.4	-2.1%	9	0.5	-4%	-1
CCOC(=O)c1ccc(NC(=S)N2CCN(CCN=CC3=C(O)CC(c4ccccc4)CC3=O)CC2)cc1 (centres undefined)	0.4%	-1.8	1.0%	1	2.5	12%	24
COc1cc2ccccc2cc1C(=O)Nc1ccc2oc(-c3cc(Br)ccc3Cl)nc2c1	0.1%	.	-0.7%	.	-0.5	.	23
CCC1CCCCN1Cc1c(O)ccc2c(=O)c(-c3ccccc3OC)coc12 (centres undefined)	1.6%	.	4.3%	.	0.9	.	-13
O=C(NCc1ccc(Cl)cc1)C1C2C=CC3(CN(Cc4cccnc4)C(=O)C13)O2 (centres undefined)	-0.3%[38.3 µM]	2.0	-3.7%	-6	-0.4	16%	13
COCCn1c(N)c(N(Cc2ccccc2)C(=O)c2ccc(-c3ccc(Cl)cc3)o2)c(=O)[nH]c1=O	-0.7%	.	?	-3	0.0	.	5
CCOC(=O)c1c(NC(=O)CSc2cn(CCNC(=O)c3cccc(C(F)(F)F)c3)c3ccccc23)sc2c1CCC2	1.1%	.	-1.9%	.	-0.2	.	-2
CC(C)(C)Sc1ccc(/C=N/O)cc1[N+](=O)[O-]	-3.6%	-0.2	-2.8%	-5	-0.2	-9%	-3
COc1ccc(C(=O)OCC(=O)C(C)(C)C)cc1S(=O)(=O)N(C)CCc1cccnc1	-1.0%	2.9	.	-4	-0.1	19%	-2
CCOC(=O)Cn1cnc2scc(-c3ccc(C)c(C)c3)c2c1=O	-0.1%	.	.	-1	-0.1	6%	2
Cc1cc2oc(C(=O)NC3CCS(=O)(=O)C3)cc(=O)c2cc1C (centres undefined)	0.4%	0.1	-13%	-11	-0.9	22%	31
Cc1cc(Nc2cccc(C(F)(F)F)c2)nc2ccc(NC(=O)c3ccc(=O)[nH]c3)cc12	14%	.	-20%	.	-1.0	.	-19
COc1ccc(CCNC(=O)C2(c3cccs3)CCOCC2)cc1	1.5%	.	-0.3%	.	1.0	.	-8
O=C(Nc1cccc2oc(=O)ccc12)c1ccc([N+](=O)[O-])cc1[N+](=O)[O-]	0.6%	-1.2	-1.0%	1	-0.3	4%	-8
Cc1ccc(-c2nnc(-c3ccc(NC(=O)Cc4cccs4)cc3)o2)cc1	?	2.6	3.5µM*	5	1.2	6%	-2
CCOc1cccc2cc(-c3csc(NC(=O)CCC(=O)NCCN4CCCCC4C)n3)c(=O)oc12 (centres undefined)	3.1%	-7.2	0.9%	-10	0.4	-9%	-11
Cc1ccc(Cn2cc(C(=O)c3ccc(F)cc3)c(=O)c3cc4c(cc32)OCO4)cc1	-0.2%	.	-2.9%	.	4.0	.	13
Cc1ccc(OCc2ccc(C(=O)Nc3c(C)nn(Cc4c(F)c(F)c(F)c(F)c4F)c3C)o2)c([N+](=O)[O-])c1	-2.9%[38.3 µM]	2.4	2.6%	6	1.5	9%	5
CCOC(=O)C(C)Sc1ccc2nnc(CCNS(=O)(=O)c3ccc(C)cc3)n2n1 (centres undefined)	0.1%&0.5%	-3.8	-22%&-15%	-2	0.9&-0.3	20%	-22&-7
O=C(CCN1CCN(c2ccccn2)CC1)Nc1ccc(F)cc1	3.0%	-0.6	1.3%	-7	-0.9	6%	5
CCOC(=O)Nc1ccc2c(c1)N(C(=O)CCN(C)C)c1ccccc1S2	-2.0%	7.3	3.2%	-2	0.1	7%	15
Cc1nn(C)c(C)c1C(C)NC(=O)c1cc(COc2ccc(F)c(F)c2)on1 (centres undefined)	2.6%	.	-1.3%	-5	0.5	1%	-24
O=C(Cc1ccccc1)NCC(=O)N1CCN(c2ccc(F)cc2)CC1	-0.6%	.	-2.2%	.	-0.1	.	6
CC(C)(C)c1ccc(C(=O)N2CCN(C(=O)c3ccco3)CC2)cc1	0.7%	-0.4	1.1%	-18	-0.2	13%	-1
CCNC(=O)c1ccc2c(c1)S(=O)(=O)c1ccccc1C2=O	0.2%	1.0	-1.2%	-8	-0.4	0%	-23
CC(=O)N1N=C(C)CC1c1ccc(OCc2ccccc2)cc1 (centres undefined)	0.0%	3.4	-3.7%	-8	-0.6	3%	6
O=c1sc2ccccc2n1COc1ccccc1	1.8%[38.3 µM]	-0.1	-1.8%	10	2.6	7%	-4
O=C(COc1ccc2ccccc2c1)N1CCN(C(=O)c2ccc([N+](=O)[O-])cc2)CC1	0.6%	-1.1	.	2	0.2	16%	-14
C=CCN1C(=O)C2(C(C#N)=C(N)Oc3n[nH]c(CCC)c32)c2ccccc21 (centres undefined)	0.7%	-0.1	0.5%	18	0.3	-4%	-2
CCOC(=O)c1cc(S(=O)(=O)N2CCN(c3cccc(OC)c3)CC2)[nH]n1	3.1%	.	-1.7%	.	1.1	.	19
C=CC[C@@H](CC(=O)N[C@@H](CO)Cc1ccccc1)C(=O)N[C@H](COC(=O)[C@H](CC=C)CC(=O)OC(C)(C)C)Cc1ccccc1	?	.	-1.3%	.	-0.6	.	-13
CCN(Cc1ccccc1)C(=O)Cn1c(=O)n(CC(=O)NCc2ccco2)c(=O)c2sccc21	.	3.0	-0.4%	5	-0.6	?	-6
